KCNQ2 pot = potentiators of rat KCNQ2 potassium channel; O88943; CHO-K1 KCNQ2, FluxOR thallium flux fluorescence; active compounds read high; B-score at 10 µM; 0.54% of 310,000 active;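 active = fluorescence ratio B-score at least 3 SD of library B-scores, with initial fluorescence B-score within 3 SD, cut at about 5.3 in these data; same plate scores as AID 2156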;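 also: B-score of peak minus minimum over baseline fluorescence ratio after K+ and Tl+ stimulus; positive B-score means potentiation of KCNQ2 with more thallium influx and brighter signal; only the inactives scoring about 0 or higher are listed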
Target sequence (O88943 whole entry, looked up): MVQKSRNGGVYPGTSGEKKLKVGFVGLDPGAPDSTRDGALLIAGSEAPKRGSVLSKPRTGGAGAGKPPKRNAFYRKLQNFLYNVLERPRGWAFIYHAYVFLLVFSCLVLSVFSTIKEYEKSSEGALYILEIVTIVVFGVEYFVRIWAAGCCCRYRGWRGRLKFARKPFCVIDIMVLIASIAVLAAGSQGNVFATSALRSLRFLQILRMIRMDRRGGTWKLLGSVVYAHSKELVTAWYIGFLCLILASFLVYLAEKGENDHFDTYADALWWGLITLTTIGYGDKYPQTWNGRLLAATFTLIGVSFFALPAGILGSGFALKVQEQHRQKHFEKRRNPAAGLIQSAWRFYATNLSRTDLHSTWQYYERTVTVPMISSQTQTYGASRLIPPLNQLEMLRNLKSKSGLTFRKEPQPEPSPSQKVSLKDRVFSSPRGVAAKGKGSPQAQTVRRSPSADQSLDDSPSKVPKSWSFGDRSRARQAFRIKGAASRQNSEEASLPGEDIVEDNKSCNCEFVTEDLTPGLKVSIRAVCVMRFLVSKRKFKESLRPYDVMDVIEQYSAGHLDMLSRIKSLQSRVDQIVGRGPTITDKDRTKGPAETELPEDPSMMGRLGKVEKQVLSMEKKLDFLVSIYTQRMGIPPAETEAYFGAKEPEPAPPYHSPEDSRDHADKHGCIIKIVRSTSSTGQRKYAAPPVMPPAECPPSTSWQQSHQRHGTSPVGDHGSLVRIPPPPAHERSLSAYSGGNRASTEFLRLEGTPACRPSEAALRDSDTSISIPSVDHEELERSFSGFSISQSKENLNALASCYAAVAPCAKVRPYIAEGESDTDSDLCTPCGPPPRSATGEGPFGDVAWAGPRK
KCNQ2 pot baseline = second read-out of KCNQ2 pot, no call of its own (marks repeat the call); B-score; compound at 10 µM; measured here: initial fluorescence intensity artifact check;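 brightness before thallium and not channel activity; 0 = typical well and far values either way flag optical interference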
Numbers without * were called inactive. These rows are one share of the data, so the mix of outcomes need not match the whole.

KCNQ2 pot	KCNQ2 pot baseline	compound
0.24	-0.85	COc1ccc(N2CCN(CC(O)COCCOc3ccc(Br)cc3)CC2)cc1 (stereo unspecified)
1.4	-0.96	COc1ccc(CN(Cc2ccco2)S(=O)(=O)c2ccc(S(=O)(=O)N3CCCC3)cc2)cc1
0.14	1.1	Cc1c(N)cccc1-n1cccc1
0.57	0.22	Cc1ccc(C(=O)NC(=S)NCc2ccccc2)cc1Br
1	-0.5	O=C(Nc1nnc(CCN2CCCCC2)s1)C1CCCCC1
1.2	-0.6	COCc1cc(N2CCOCC2)nc(SCc2ccc(Cl)cc2)n1
0.75	2.2	O=C(OCc1cccc2ccccc12)C1CC(=O)N(c2ccccc2)C1 (stereo unspecified)
0.69	-0.01	CCOC(=O)N1CCN(C(=O)c2ccc3c(Cl)c4c(nc3c2)CCCC4)CC1
0.02	-0.12	COc1cccc(C2NC(c3cccc(OC)c3O)C(C)C(=O)C2C)c1O (stereo unspecified)
2	0.73	CCOC(=O)CSc1ncnc2c(C(=O)OCC)c3n(c12)CCC3
0.07	2.1	CCOC(=O)c1cc(S(=O)(=O)N2CCN(Cc3ccccc3)CC2)cn1C
0.82	-1.6	COC(=O)c1ccc(COn2c(=O)c(C)[n+]([O-])c3ccccc32)cc1
1.1	-1.9	COCCCNCC#CCOc1ccc(OC)cc1
0.41	-0.35	Cc1ccc(NC(=O)c2ccc(Cl)c(S(=O)(=O)NCC3CCCO3)c2)c(O)c1 (stereo unspecified)
1.4	0.94	CCc1ccc(CN2CCC(n3nccc3NC(=O)c3cccc(F)c3)CC2)cc1
0.07	-1.5	NC(=O)c1ccccc1NS(=O)(=O)c1ccc(F)cc1
0.67	-0.27	Cc1cccnc1NC1CCCCC1
1.2	-2.4	COc1ccccc1C(=O)OC1CCCN(C)C1 (stereo unspecified)
1.9	-0.27	O=C(c1ccco1)N1CCN(C(=O)C2CC(c3ccc(Cl)cc3)=NO2)CC1 (stereo unspecified)
6*	-0.07*	CCCCc1ccc(-c2ccc(Br)cc2O)nc1
0.73	-1.7	COc1ccc(CCCC(=O)Nc2ccccc2F)cc1
0.51	3.1	O=C(Cn1nnc2ccccc21)c1cccc([N+](=O)[O-])c1
2	0.71	Cc1c(NS(=O)(=O)c2ccc(N)cc2)c(=O)n(-c2ccccc2)n1C
0.81	0.77	CCOc1ccc(CN2CCN(Cc3cccn3-c3ncccn3)CC2CCO)cc1 (stereo unspecified)

Two entries from above, as tab-separated lines.
canonical_smiles	KCNQ2 pot	KCNQ2 pot baseline
O=C(c1ccco1)N1CCN(C(=O)C2CC(c3ccc(Cl)cc3)=NO2)CC1 (stereo unspecified)	1.9	-0.27
Cc1cccnc1NC1CCCCC1	0.67	-0.27

Next part.
KCNQ2 pot	KCNQ2 pot baseline	compound
1.2	-0.65	N#Cc1nc(-c2ccc(F)cc2)oc1NCc1cccc2c1OCO2
1.3	0.02	O=C(C1CCC(C(=O)N2CCCCC2)CC1)N1CCCCC1 (stereo unspecified)
1.2	0.2	CCCCCCCOC(=O)c1nc(Cl)c(Cl)c(N)c1Cl
0.05	0.59	COc1cc(Nc2cc(C)nc3ncnn23)cc(OC)c1
0.84	0.08	O=C(NC(=O)c1cnccc1C(F)(F)F)Nc1ccccc1
1.2	0.99	CC(=O)CC(c1ccccc1)S(=O)(=O)c1ccc([N+](=O)[O-])cc1 (stereo unspecified)
0.06	0.11	O=C(Nc1ccc(O)cc1)/C(=C/c1ccco1)NC(=O)c1ccccc1
0.85	0.02	CCCN(CC(=O)Nc1ccccc1OC)Cc1c(O)ccc2ccccc12
1.9	-1.5	COc1cccc(OC)c1C(=O)N1CCOCC1
0.53	-0.06	O=C(O)c1cc(-c2ccc(O)cc2)on1
0.21	-0.35	CCNC(=O)/C(C#N)=C/c1c(N2CCN(c3ccccc3)CC2)nc2ccccn2c1=O
1.2	0.33	CC1CCN(CC(O)Cn2c3ccccc3c3ccccc32)CC1 (stereo unspecified)
0.07	-0.38	CC1(C(=O)O)C=CC2(CCCCC2)N1C(=O)c1ccccc1 (stereo unspecified)
0.05	1.7	COc1cccc(-c2nnc(SCC(=O)N3CCOCC3)o2)c1
1.2	-2.1	CCn1cc(C(=O)N[C@@H](C)C(=O)NCCCN2CCOCC2)c(=O)c2cc3c(cc21)OCO3
1.4	-0.23	CCCCn1c(N)c(N(CCOC)C(=O)c2ccc(S(=O)(=O)N3CCC(C)CC3)cc2)c(=O)[nH]c1=O
0.3	2.3	CC(=O)Nc1ccc(NC(=O)CSc2nnc3ccc(-c4cccnc4)nn23)cc1
0.18	0.75	COc1ccc(C(=O)N/C(=C\c2ccco2)C(=O)NCCN2CCOCC2)cc1
0.18	-0.41	O=C(COC(=O)COc1cccc2ccccc12)NCC(F)(F)F
0.23	1.1	O=C(CN(CC1CCCO1)C(=O)CCC(=O)Nc1ccccn1)NCc1ccccc1 (stereo unspecified)
1.6	-0.96	O=C(Nc1cc([N+](=O)[O-])ccc1F)c1cccs1
0.89	-1.1	COc1ccccc1C(=O)OCC(=O)Nc1ccccc1OC(F)F
0.01	0.25	CC(C)CN(C(=O)CN1CCN(S(=O)(=O)c2ccc3ccccc3c2)CC1)c1c(N)n(CC(C)C)c(=O)[nH]c1=O
0.23	-0.08	COc1ccc(NC(=O)C(c2ccc(OC)cc2)N(Cc2ccco2)C(=O)CC2NC(=O)NC2=O)cc1 (stereo unspecified)
0.09	-1.3	CCSc1nnc(NC(=O)CSc2nnc(Cc3cccn3C)n2-c2ccc(F)cc2)s1
0.52	-3	COc1ccc(-n2c(O)c(C=Nc3ccccc3)c3ccccc3c2=O)cc1
0.88	-0.43	CCc1ccc(Nc2nc(C)cc(C)c2C(N)=O)cc1
2.6	-0.04	CCCN(CC1COc2ccccc2O1)C(=S)Nc1ccc(C)cc1 (stereo unspecified)
0.88	0.07	CCN(CC(=O)Nc1ccc(NC(C)=O)cc1)C(=O)Cc1ccc(Cl)c(Cl)c1
0.72	-0.33	CC(=O)OCC(=O)[C@H]1CC[C@H]2[C@@H]3CCC4=CC(=O)CC[C@]4(C)[C@H]3CC[C@]12C
0.27	-0.24	Cc1noc(C)c1S(=O)(=O)N1CCCC(C(=O)Nc2cccnc2)C1 (stereo unspecified)
0.05	-0.07	Cc1cccc(N2C(=O)c3ccc(C(=O)Nc4ccccn4)cc3C2=O)c1
1.2	1.3	CCOc1ccccc1CN1CCNC(=O)C1CC(=O)N(C)CCc1ccccn1 (stereo unspecified)
1.8	-0.25	Nc1nc(Nc2ccccc2)n[nH]1
0.78	1.9	CCn1nc(C)c(CNC(=O)c2cc(COc3ccc(C)nc3)on2)c1C
1.3	-0.18	COc1ccc(S(=O)(=O)NCCc2nnc3ccc(SCc4cccnc4)nn23)cc1
0.57	0.82	CSc1nc2cc(Oc3cccc(Cl)c3Cl)c(Cl)cc2[nH]1
0.7	-0.01	CCN1CCN(c2nc3c(c(=O)[nH]c(=O)n3C)n2CCCSc2ncccn2)CC1
1	0.45	O=C(CCCO)c1ccc2c(c1)OCCO2
0.88	0.17	O=C(O)c1cccc(NCc2cccnc2)c1
0.41	0.07	CCOc1ccc(NS(=O)(=O)c2cc3c4c(c2)C(C)C(=O)N4CCC3)cc1 (stereo unspecified)
1.5	0.32	CCCCCCCN1CCC(=O)N([C@H](CO)Cc2ccccc2)CC1
0.12	-0.86	O=C(NCc1ccc(Cl)cc1)c1ccc2nc[nH]c2c1
0.5	-0.54	O=C1Nc2ccc(S(=O)(=O)N3CCCCCC3)c3cccc1c23
0.7	-0.61	COC(=O)c1c(NC(=O)C2CC=CCC2C(=O)O)sc2c1CCCCC2 (stereo unspecified)
0.52	-0.46	O=C(Cn1nnc2ccccc2c1=O)NC1CCCCC1
0.11	-1.6	C#CCN(CC=C)C(=O)c1cccc(OC2CCN(S(C)(=O)=O)CC2)c1
0.11	-1.7	C=CCn1cc(C(=O)NCc2ccc3c(c2)OCO3)c(=O)c2cc(S(=O)(=O)N(CC)CC)ccc21
0.19	0.12	CCCCSc1nnc(CCCCCNC(=O)OC(C)(C)C)o1
0.22	0.74	COCC(C)n1c(C)cc(C(=O)Cn2nc(C(=O)O)c3ccccc3c2=O)c1C (stereo unspecified)
1	0.11	COc1ccc([N+](=O)[O-])cc1NC(=O)C(C)OC(=O)Cn1[nH]c(=O)c2ccccc2c1=O (stereo unspecified)
0.69	0.4	CC(C)CNC(=O)c1c(F)c(F)c(F)c(F)c1F
1.1	-1.5	CCOc1ccc(OCC(=O)OCC(=O)N2CCN(C(=O)c3ccco3)CC2)cc1
0.22	0.69	COCC1OS(=O)(=O)NC(CC(=O)SC(C)(C)C)C1C (stereo unspecified)
0.2	2.4	Cc1ccc(C(=O)C2C(c3cccs3)NC(=O)NC2(O)C(F)(F)F)cc1 (stereo unspecified)
0.88	-0.08	CC(C)Oc1ccc(C(=O)NCC(=O)O)cc1

(more compounds)
KCNQ2 pot	KCNQ2 pot baseline	compound
1.3	0.24	COc1cccc(C2NC(=O)NC(C)=C2C(=O)Nc2cccc(C)c2C)c1 (stereo unspecified)
0.84	-1.1	[O-][n+]1cccc2c(Br)cc(Br)c(O)c21
0.74	0.1	Cn1ncc(Cl)c(Oc2ccc(Cl)cc2)c1=O
1.4	-1.8	CCS(=O)(=O)c1ccc2oc(Nc3ccccc3Br)nc2c1
0.98	-0.95	Cc1ccc(N(CC(=O)Nc2ccc(-c3nc4ccc(C)cc4s3)cc2)S(C)(=O)=O)cc1
1.4	-0.61	O=c1c2ccccc2nc2n1C(CSc1ccc(Cl)cc1)CN2 (stereo unspecified)
0.01	0.09	CCOC(=O)C1=NN(c2ccc(OC)cc2)C(c2ccccc2)CC1=O (stereo unspecified)
0.15	1.2	COC(CNc1ncnc2c1cnn2C)OC

Rewritten with values under each structure: entries from further up
Order of values – KCNQ2 pot, KCNQ2 pot baseline
COc1ccc([N+](=O)[O-])cc1NC(=O)C(C)OC(=O)Cn1[nH]c(=O)c2ccccc2c1=O (stereo unspecified)
→ 1, 0.11
CC(C)CNC(=O)c1c(F)c(F)c(F)c(F)c1F
→ 0.69, 0.4
CCOc1ccc(OCC(=O)OCC(=O)N2CCN(C(=O)c3ccco3)CC2)cc1
→ 1.1, -1.5
COCC1OS(=O)(=O)NC(CC(=O)SC(C)(C)C)C1C (stereo unspecified)
→ 0.22, 0.69
Cc1ccc(C(=O)C2C(c3cccs3)NC(=O)NC2(O)C(F)(F)F)cc1 (stereo unspecified)
→ 0.2, 2.4
CC(C)Oc1ccc(C(=O)NCC(=O)O)cc1
→ 0.88, -0.08
COc1cccc(C2NC(=O)NC(C)=C2C(=O)Nc2cccc(C)c2C)c1 (stereo unspecified)
→ 1.3, 0.24
[O-][n+]1cccc2c(Br)cc(Br)c(O)c21
→ 0.84, -1.1
Cn1ncc(Cl)c(Oc2ccc(Cl)cc2)c1=O
→ 0.74, 0.1
CCS(=O)(=O)c1ccc2oc(Nc3ccccc3Br)nc2c1
→ 1.4, -1.8
Cc1ccc(N(CC(=O)Nc2ccc(-c3nc4ccc(C)cc4s3)cc2)S(C)(=O)=O)cc1
→ 0.98, -0.95
O=c1c2ccccc2nc2n1C(CSc1ccc(Cl)cc1)CN2 (stereo unspecified)
→ 1.4, -0.61
CCOC(=O)C1=NN(c2ccc(OC)cc2)C(c2ccccc2)CC1=O (stereo unspecified)
→ 0.01, 0.09
COC(CNc1ncnc2c1cnn2C)OC
→ 0.15, 1.2

(cont.)
KCNQ2 pot	KCNQ2 pot baseline	compound
2.2	0.01	CCC(=O)Nc1cccc(NC(=O)c2cc3ccccc3o2)c1
0.69	1.6	O=C(NC1CCCCC1)N1CCNCC1
0.36	-0.76	CCCOc1ccccc1-c1nc(SCCC(=O)O)n[nH]1
0.19	1.2	CC(C)NC(=O)C1CCN(C2CCN(Cc3nc4ccccc4s3)CC2)CC1
6.6*	0.32*	O=C(OCc1cccc([N+](=O)[O-])c1)c1ccncc1
2.3	1.1	Nc1nc(NCCOCCO)nc(Nc2cccc(F)c2)c1[N+](=O)[O-]
0.74	0.21	Cc1ccc(C(=O)N/C(=C/c2cccnc2)C(=O)NCc2ccco2)cc1
0.94	-1.6	O=C(O)CCCCCN1C(=O)C(O)=C(C(=O)/C=C/c2ccccc2)C1c1ccc2c(c1)OCO2 (stereo unspecified)
0.13	-1.4	COc1ccc(CNC(=O)COC(=O)c2ccc3c(c2)OCCO3)cc1
0.02	-0.46	CC(Oc1ccc(/C=N/NC(=O)Cc2cccc3ccccc23)cc1)C(=O)O (stereo unspecified)
1.3	-2.7	COc1ccccc1NS(=O)(=O)c1cccc(C(=O)N/N=C/c2ccc3c(c2)OCCO3)c1
0.23	1.3	COc1ccc(CC(=O)Nc2ccc3c(C)cc(=O)oc3c2)cc1OC
1.4	1.1	CC(C)OCCCNc1ncnc2c1[nH]c1ccccc12
1.5	-0.42	COc1nc(C)cc(C)c1S(=O)(=O)c1ccccc1
0.59	0.54	Cc1cccc(N2CCN(C(=O)c3ccncc3)CC2C)c1 (stereo unspecified)
0.47	0.41	O=C(c1noc2c1CCCC2)N1CCCCC1
1.7	0.36	COc1cc(C(=O)NCC(=O)OCC(=O)c2cccc3ccccc23)cc(OC)c1OC
0.21	-0.99	C=CCNC(=O)c1onc(CSc2cccc(C)c2)c1C(=O)O
0.19	1	N#CCC(=O)N/N=C/c1ccc(N2N=C(c3ccccc3)CC2c2ccccc2)cc1 (stereo unspecified)
0.74	-0.1	COC(=O)C1=C(C)N=C2SCCC(=O)N2C1c1cccs1 (stereo unspecified)
0.22	-0.61	O=C(Nc1ccc(-c2nnc3n2CCCCC3)cc1)c1cc2ccccc2o1
1.5	-1.3	CCn1cc([N+](=O)[O-])nc1C
0.06	1.1	Cc1ccc(-n2c(C)n[nH]c2=S)cc1

Screens: PubChem BioAssay, Johns Hopkins Ion Channel Center
